From PubChem
Rango dissoc inh: prevents RanGTP from dissociating the Rango-importin beta complex | O95149+P62826 | Biochemical FRET Rango-importin beta, RanGTP-induced dissociation | Potency, µM (top dose mostly 46.1 µM), for the others: top-dose activity change, negative = inhibition | 340,000 tested, 0.071% active | AID 540253; active means falling FRET ratio curve, often poorly fitted, with flat reads before Ran was added; inconclusive means other falling curves, or compound fluorescence or quenching; inactive means flat or rising ratio curve;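 further: potency means the concentration at half of the fitted maximal effect; % of control where 0% means no effect; nearly all actives have a fitted effect of over 45% in size; -100% = wells without RanGTP and RCC1; the record marks most hits as doubtful in a second field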
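Rango/importin beta premix (0.1/0.25 uM final), PBS + 1 mM DTT + 0.02% Tween-20 + 0.1% BSA; cpd 5 min RT; FRET pre-read; + RanGTP-RCC1 (0.6 uM Ran, 2 mM GTP, 0.2 uM RCC1); 45 min RT; FRET post-read, ex 430, em 486/530 nm.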
miR-21 FLuc: raises the signal of a miR-21 reporter; HeLa miR-21 FLuc reporter, luciferase, 48 h; Potency, µM (highest dose often 38.3 µM), without a hit: top-dose reporter change, positive = more light; 340,000 tested, under 10 active; AID 2288; active = well fitted rising curve with a large enough effect; inconclusive = small, poorly fitted or top-dose-only effect; inactive = no such curve, though single readings can be large or run the other way;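 further: % of control where 0% means no effect; miR-21 action dims this reporter so a rising signal means less miR-21 action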
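Using DMEM plus 10% FBS, HeLa miR-21-FLuc cells are incubated with test compounds (final up to about 40uM) for 48 hours; firefly luciferase signal is then imaged following reagent-mediated lysis.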
Rango complex inh: Rango-importin beta binding inhibition. Rango CFP/YFP FRET sensor + importin beta, 45 min. 340,000 tested, 0.031% active. Q14974. AID 540263. Potency, µM (titrated, usually from 92.2 µM), without a hit: at the highest dose inhibition of complex formation; active = rising FRET ratio curve, often small or poorly fitted; inconclusive = mostly compound fluorescence or quenching in the first reads; inactive = flat curves in all reads;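 further: potency means the concentration at half of the fitted maximal effect; 0% = DMSO wells and 100% = buffer wells lacking importin beta; nearly all actives have a fitted effect of over 15% in size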
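FRET biosensor Rango (snurportin 1 IBB between N-terminal EYFP and C-terminal Cerulean), 50 nM in PBS/1 mM DTT/0.02% Tween-20/0.1% BSA, preincubated 5 min RT with compound; 0.125 microM importin beta added, 45 min RT, CFP/YFP FRET ratio read.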
GLA inh pH 4.5: inhibitors of human alpha-galactosidase A at pH 4.5. P06280. purified enzyme, 4-MU-alpha-Gal fluorescence, pH 4.5. activity change, negative = inhibition, % at 105 µM. 230,000 tested, under 10 active. AID 1467; inconclusive = small, poorly fitted or top-dose-only inhibition, or a rising curve; inactive = flat fitted curve, though single readings scatter; no compound was filed as active;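 further: 0% = full activity with enzyme and -100% = basal without enzyme; dose as in the result columns while the protocol names 77 µM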
Target sequence (P06280 whole entry, looked up): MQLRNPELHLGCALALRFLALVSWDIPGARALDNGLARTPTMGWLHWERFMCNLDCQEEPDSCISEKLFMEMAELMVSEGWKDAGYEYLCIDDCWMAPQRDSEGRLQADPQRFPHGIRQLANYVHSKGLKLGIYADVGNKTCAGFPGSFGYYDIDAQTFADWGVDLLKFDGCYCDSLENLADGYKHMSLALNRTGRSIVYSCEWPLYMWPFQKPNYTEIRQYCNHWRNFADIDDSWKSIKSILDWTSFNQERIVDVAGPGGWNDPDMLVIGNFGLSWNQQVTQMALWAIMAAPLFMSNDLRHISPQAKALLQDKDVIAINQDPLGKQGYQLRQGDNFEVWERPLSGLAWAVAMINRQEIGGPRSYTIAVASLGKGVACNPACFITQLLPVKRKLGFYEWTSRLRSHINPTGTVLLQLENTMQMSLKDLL
* = called active by the depositor; ? = inconclusive; . = not tested or not shown.

The first 2 entries, to show the layout:
item	SMILES	miR-21 FLuc	GLA inh pH 4.5	Rango complex inh	Rango dissoc inh
1	O=C(/C=C/c1ccccc1Cl)c1ccc(O)cc1	12.0%	-18.7	-1.9%	-7.5%
2	CCCCN(CC)CCCNC(=O)c1csc2c1CCCCC2	-3.7%	1.1	4.3%	3.8%

The list itself, previewed entries included:
item	SMILES	miR-21 FLuc	GLA inh pH 4.5	Rango complex inh	Rango dissoc inh
1	O=C(/C=C/c1ccccc1Cl)c1ccc(O)cc1	12.0%	-18.7	-1.9%	-7.5%
2	CCCCN(CC)CCCNC(=O)c1csc2c1CCCCC2	-3.7%	1.1	4.3%	3.8%
3	CCOc1cc(C(=O)Nc2ccc(S(=O)(=O)Nc3onc(C)c3C)cc2)cc(OCC)c1OCC	.	.	0.3%	-1.5%
4	Cc1ccc(-n2ncc3c(=O)[nH]cnc32)c(C)c1	-0.5%	-5.7	0.2%	-3.1%
5	Cc1oc2cc3oc(=O)c(CC(=O)NCCC(=O)O)c(C)c3cc2c1C	2.0%	.	-8.6%	-4.8%
6	O=C(Oc1ccc2c(=O)c(Oc3ccc4ccccc4c3)coc2c1)c1cncc(Br)c1	-7.1%	2.6	2.8%	2.2%
7	COC(=O)c1cc2ccsc2n1CC(=O)Nc1ccc(N(C)C)cc1	-13.3%	3.9	0.9%	-9.2%
8	COc1ccccc1N1CCN(C(=O)CSc2nc3ccccc3o2)CC1	-6.3%	-9.2	-3.3%	-3.4%
9	CS(=O)(=O)N(CC(=O)Nc1ccccc1C(=O)NCc1ccco1)c1ccc2c(c1)OCCO2	21.1%	8.9	4.0%	-4.2%
10	COc1cccc(NC(=S)NCc2cccnc2)c1	-1.5%	4.4	4.6%	3.2%
11	COc1ccc(N(CC(=O)Nc2ccc(C)c(C)c2)S(=O)(=O)c2c(C)n[nH]c2C)cc1	2.9%	-0.6	0.4%	2.8%
12	O=C(COC(=O)c1cc(-c2ccccc2Cl)nc2ccccc12)Nc1ncc(C(F)(F)F)cc1Cl	-3.6%	7.4	-0.7%	6.2%
13	CCC(=O)C1=C(N2CCCC2)CC(C)(C)CC1=O	1.5%	0.8	-2.5%	0.1%
14	O=C(COC(=O)Cc1ccsc1)NC1CCCCCC1	2.1%	4.4	3.3%	-3.2%
15	O=C(Nc1ccccc1C(=O)O)c1cc(S(=O)(=O)NCc2ccccc2)ccc1Cl	-0.7%	.	1.8%	-7.7%

item	SMILES	miR-21 FLuc	GLA inh pH 4.5	Rango complex inh	Rango dissoc inh
16	O=C(NCc1ccc(Cl)cc1)C(=O)NCC1OCCN1S(=O)(=O)c1ccc2c(c1)OCCO2 (stereo unspecified)	4.7%	7.0	-0.2%	-12.5%
17	COc1cccc(NC(=O)CN(C)C(=O)CCNS(=O)(=O)c2ccc(C)cc2)c1	.	.	-1.4%	-10.8%
18	COc1ccc(C(=O)CSc2nc3cccnc3n2C)cc1	-13.8%	-5.3	0.7%	1.4%
19	COCCNc1nnc(SC(C)C(=O)Nc2ccc(-c3nc4ccc(C)cc4s3)cc2)s1 (stereo unspecified)	-7.6%	-3.1	-5.5%	-11.7%
20	O=C(N/N=C/c1cccnc1)c1cccc(Br)c1	-14.8%	.	-0.3%	-1.8%
21	CCCCC[C@H](O)/C=C/C1=C(CCCCCCC(=O)O)C(=O)CC1	-10.4%	-1.4	0.2%	-7.2%
22	Cc1ccc(-c2ccc(SCC(=O)N3CCN(c4ccccc4)CC3)nn2)cc1	-10.1%	-14.1	0.5%	-17.5%
23	Cc1cccc(C)c1NC(=O)C(=O)NCC1CCCN1S(=O)(=O)c1cccs1 (stereo unspecified)	.	.	-2.8%	-15.9%
24	COc1ccc(C2(c3ccc(OC)cc3)NC(=O)N(CC(=O)N(C)C)C2=O)cc1	2.6%	.	0.0%	-6.5%
25	CC(C)C[C@@H]1NC(=O)[C@H](C(C)C)NC(=O)c2cc([N+](=O)[O-])cc(I)c2NCC[C@@H](C(N)=O)NC1=O	-2.1%	4.3	-1.3%	0.0%
26	O=S(=O)(c1ccc(N2CCN(S(=O)(=O)c3ccc4c(c3)OCCO4)CC2)nc1)N1CCCC1	0.2%	-4.3	-4.9%	-3.3%
27	CCCn1cc(CN2CCc3ccc(NC(=O)C4CCCO4)cc3C2)c(C)n1 (stereo unspecified)	-0.4%	.	-3.3%	15.6%
28	Cc1ccnc(NC(=S)NC(=O)/C=C/c2ccco2)c1	-13.4%	-8.3	-2.1%	-8.1%
29	C=CCn1c(SCc2ccc(Cl)cc2)nc2c1c(=O)[nH]c(=O)n2C	-38.9%	3.4	0.5%	-5.5%
30	Cc1nc2c(-c3ccc(F)cc3)cnn2c2c1CCC2	-22.9%	16.0	?	-8.0%

item	SMILES	miR-21 FLuc	GLA inh pH 4.5	Rango complex inh	Rango dissoc inh
31	Cc1ccc(-n2nnnc2SCC(=O)c2ccc3c(c2)NC(=O)CO3)c(C)c1	-8.0%	2.4	0.2%	23.4%
32	O=C(c1ccco1)N1CCN(C(=S)NC2CC3CCC2C3)CC1 (stereo unspecified)	-44.4%	-0.9	-5.3%	-9.1%
33	Cc1ccc(S(=O)(=O)N(Cc2n[nH]c(=S)n2-c2ccccc2)c2cccc(Cl)c2)cc1	-2.4%	-3.0	1.1%	-9.6%
34	O=c1c2[nH]c3ccc(Cl)cc3c2ncn1Cc1ccccn1	-0.2%	0.5	0.1%	-8.9%
35	Nc1nc(C2C(=O)CCCC2=O)cs1	-1.2%	-0.7	?	-12.3%
36	C/C(=N\NC(=O)C1CCCC1)c1ccc(Cl)cc1Cl	-5.8%	.	-5.2%	0.0%
37	O=C(Nc1nc2ccccc2n1CCN1CCOCC1)c1cn(-c2ccccc2)nc1-c1ccccc1	?	-13.6	6.0%	2.4%
38	CC(=O)c1ccc(-c2nc3ccccc3n2C)o1	-38.9%	?	1.0%	-8.7%
39	Cc1ccc2nc(N3CC(C)OC(C)C3)nc(-c3ccccc3)c2c1 (stereo unspecified)	-5.0%	.	?	?
40	Cc1ccc(OCC(=O)N2CCc3ccccc3C2)c(Br)c1	-48.3%	.	1.2%	-1.6%
41	O=C(Nc1nc2cc3c(cc2s1)OCCO3)c1ccc([N+](=O)[O-])o1	-34.8%	.	-1.6%	-9.9%
42	COc1ccc(Cl)cc1NC(=O)C/C(C)=N/NC(=O)c1ccccc1Cl	0.1%	.	-1.3%	22.1%
43	Cc1ccc(N)c([N+](=O)[O-])c1	.	.	3.5%	13.4%
44	COCCn1c(-c2ccccc2)nc2oc3ccccc3c(=O)c2c1=O	-4.4%	-3.7	0.0%	4.4%
45	O=C(N1CCN(Cc2ccc3c(c2)OCO3)CC1)C(Cl)(Cl)Cl	-4.5%	.	-4.2%	3.9%

item	SMILES	miR-21 FLuc	GLA inh pH 4.5	Rango complex inh	Rango dissoc inh
46	Cc1ccc(S(=O)(=O)N2CCCC2C(=O)NCc2ccco2)cc1 (stereo unspecified)	-0.9%	-3.3	-4.1%	-16.3%
47	Cc1cccc(C)c1NC(=O)CN(C)CC(=O)Nc1ccccc1Oc1ccccc1	5.6%	9.2	2.4%	12.0%
48	FC(F)(F)c1cc(C(F)(F)F)c2ccc(N3CCOCC3)nc2n1	-6.6%	.	?	?
49	Clc1cccc(Cl)c1CO/N=C/c1cccs1	0.4%	-6.8	0.1%	2.0%
50	c1ccc(-c2nn3c(-c4ccco4)nnc3s2)nc1	-11.9%	-4.0	-4.5%	-2.0%
51	O=C(N/N=C/C=C/c1ccccc1)c1cccc(Br)c1	-9.8%	5.8	5.8%	-15.0%
52	CC1(C)CCC(=O)N(c2ccccc2)C1=O	-7.7%	5.6	?	-2.1%
53	COc1cc(SC)ccc1C(=O)Nc1ccccn1	-6.0%	-0.6	2.0%	13.3%
54	COC(=O)CN(C(=O)CSc1nnc(-c2cccc(OC)c2)o1)c1ccc(OC)cc1	-11.5%	2.6	-0.5%	35.4%
55	CC(C)(C)NC(=O)CN(Cc1ccccc1)S(=O)(=O)c1ccccc1	4.6%	.	4.1%	0.2%
56	COc1cc(NC(=O)CN2C(=O)COc3ccc(S(=O)(=O)N4CCCC4)cc32)cc(OC)c1	2.4%	.	-0.5%	16.5%
57	CCN1C(=O)/C(=C\N2CCN(C)CC2)SC1=S	-1.3%	-3.9	-1.4%	-3.3%
58	CCOC(=O)c1cnn(Cc2ccccc2Cl)c1N	-8.9%	1.4	-2.9%	-2.4%
59	CCOc1ccccc1C(=O)Nc1cc(C(=O)NCCc2ccccc2)ccc1Cl	-9.2%	-8.3	0.4%	-0.2%
60	CCOc1[nH]n(-c2ccccc2)c(=O)c1C=NCC(=O)OC	2.6%	-4.5	-1.4%	-1.7%

item	SMILES	miR-21 FLuc	GLA inh pH 4.5	Rango complex inh	Rango dissoc inh
61	O=C(CCCOc1ccc(Cl)cc1Cl)N/N=C/c1ccc(Cl)cc1	1.5%	2.8	3.2%	-8.2%
62	Cc1noc(C)c1C(=O)OC(C)C(=O)NC(C)c1ccc(Cl)cc1Cl (stereo unspecified)	.	.	-2.9%	9.4%
63	O=C(c1ccc(C(F)(F)F)cc1)C1CCCN(Cc2cccn2-c2ncccn2)C1 (stereo unspecified)	1.9%	-3.0	4.2%	-5.6%
64	CCCS(=O)(=O)c1nc(S(=O)(=O)c2ccc(C)cc2)c(N2CCC3(CC2)OCCO3)s1	-2.9%	.	?	-10.6%
65	COc1ccc(N2CC(C(=O)Nc3ccc(S(=O)(=O)N4CCOCC4)cc3)CC2=O)cc1 (stereo unspecified)	3.5%	-1.0	2.9%	-2.0%
66	CC1NC(=O)NC1CCCCC(=O)O (stereo unspecified)	0.9%	2.5	6.2%	-5.0%
67	COC(=O)N/N=C(\C)c1ccccc1Br	4.3%	-4.0	-2.9%	14.6%
68	O=C(COC(=O)COc1ccc2ccccc2c1)NC1CCCc2ccccc21 (stereo unspecified)	1.3%	-1.9	-1.8%	15.2%
69	CC1CCC(C(=O)NC(C(=O)N2CCN(c3ccccn3)CC2)C(C)C)CC1 (stereo unspecified)	-3.2%	-11.2	0.0%	-4.2%
70	O=C(Cc1nn[nH]n1)NCc1ccccc1Cl	-5.3%	6.2	-4.3%	-1.8%
71	O=C(Nc1cccc(Cl)c1)Nc1ccc2c(c1)C(=O)OC2	-26.9%	2.6	1.7%	-8.1%
72	CCOC(=O)c1oc2ccc(Br)cc2c1COC(=O)C1=COCCO1	.	.	-0.6%	-5.7%
73	CCOc1ccccc1NC(=O)c1cnccn1	-14.4%	.	2.1%	8.2%
74	CCc1cccc(NS(=O)(=O)c2ccc3c(c2)NC(=O)CO3)c1	4.5%	.	-5.8%	-0.2%
75	CCOc1cnc(-c2ccccc2F)o1	-5.2%	-4.2	4.3%	8.4%

item	SMILES	miR-21 FLuc	GLA inh pH 4.5	Rango complex inh	Rango dissoc inh
76	O=C(COC(=O)C(Cc1ccccc1)NC(=O)c1ccco1)NC1CC1 (stereo unspecified)	-2.5%	-3.5	2.0%	?
77	Cc1cc(C)n2nc(SCC(=O)N3CCN(c4ccc(F)cc4)CC3)nc2n1	.	.	-0.5%	1.2%
78	Cc1ccc(CNC(=O)C(C(=O)NCc2ccc(C)o2)c2ncc(C(F)(F)F)cc2Cl)o1	-0.3%	-0.9	0.6%	0.8%
79	CCOc1ccccc1NC(=O)C(CC)Sc1nc2ccsc2c(=O)n1CCC(=O)O (stereo unspecified)	-25.3%	.	-5.2%	-5.1%
80	CNC(=O)Cn1nc(-c2ccc(C)c(S(=O)(=O)N(C)C)c2)c2ccccc2c1=O	-15.6%	-2.1	-2.5%	2.2%
81	COc1ccc2cc(C(N)=O)/c(=N/NC(=O)c3ccco3)oc2c1	-24.9%	-4.0	?	-6.6%
82	O=C(COC(=O)CC(NC(=O)c1ccccc1Cl)c1ccccc1)Nc1cccc(F)c1 (stereo unspecified)	-1.1%	6.6	1.2%	-12.0%
83	Cc1c(C(=O)O)cccc1-c1ccc(/C=N/n2cnnc2)o1	-31.9%	.	2.1%	-1.0%
84	COc1cc(OC)c(/C=N/NC(=O)c2ccc([N+](=O)[O-])cc2)cc1Br	-0.6%	-2.4	-4.1%	33.4%
85	COc1ccc(C(=O)NC(CC(=O)O)c2cc([N+](=O)[O-])ccc2Cl)cc1 (stereo unspecified)	0.2%	7.2	1.0%	12.9%
86	O=C(NCc1ccncc1)c1ccc(Cl)c(S(=O)(=O)N2CCOCC2)c1	-3.5%	-4.0	6.1%	14.3%

The list is partial; count on the stated rates, not on these rows.
